nsP2pro inh – Primary qHTS for inhibitors of NSP2Pro chikungunya virus (CHIKV); FRET peptide cleavage, nsP2pro, fluorescence 1 h; Potency, µM (highest dose often 24.9 µM), for the others: at the top dose activity change, negative = inhibition, hits mostly inhibitors; 31,000 tested, 1.1% active; AID 1964107, 2024; active means well fitted inhibition curve with a large enough effect; inconclusive means small, poorly fitted or top-dose-only effect; inactive means no such curve, though single readings can be large or run the other way; note: nearly all actives have a fitted effect of over 60% in size; a reference inhibitor and vehicle were the controls
The depositor's hits bear a star; i = inactive; ? = inconclusive; & = joins results of further samples; [ ] = remark or other dose. % is set by controls: 0 for no effect and ±100 for the full control effect; potency is the fitted concentration of half-maximal effect. This is a subset; count on the stated rates, not on these rows.

SMILES	nsP2pro inh
COc1ccc(C(c2c(C)n(C)n(-c3ccccc3)c2=O)c2c(C)n(C)n(-c3ccccc3)c2=O)cc1O	-17%
OC[C@H]1O[C@@H](Oc2cc(O)c3c(c2)O[C@@H](c2ccc(O)cc2)[C@H](O)C3)[C@H](O)[C@@H](O)[C@@H]1O	?
N#Cc1ccc(-c2ccc(CNc3ccc(N4CCN5CCCCC5C4)cc3)o2)cc1 (centres undefined)	-21%
NC(=O)CC[C@@H](N)C(=O)O	?
C[C@@H]1O[C@@H](O[C@H]2[C@H](O[C@H]3[C@H](O[C@H]4CC[C@@]5(C)C(CC[C@]6(C)C5CC=C5[C@@H]7CC(C)(C)CC(=O)[C@]7(C)CC[C@]56C)[C@@]4(C)CO)O[C@H](C(=O)O)[C@@H](O)[C@@H]3O)O[C@H](CO)[C@H](O)[C@@H]2O)[C@H](O)[C@H](O)[C@H]1O (some centres undefined)	45%[5.1 µM]
COc1cc(Nc2nc(-c3ccncc3)nc3ccccc23)ccc1Cl	0%
CN[C@@H]1[C@@H](O)[C@@H](O[C@@H]2[C@@H](O)[C@H](OC3O[C@H](CN)[C@@H](O)[C@H](O)[C@H]3O)[C@@H](N)C[C@H]2NC(=O)[C@@H](O)CN)OC[C@]1(C)O (some centres undefined)	12%[10 µM]
Cc1nn(-c2ccccc2)c(C)c1[C@@H]1C=C[C@@H](NCc2ccc(F)cc2)C1	-3%[39.2 µM]
CC1(C)CC[C@]2(C(=O)O)CC[C@]3(C)C(=CCC4[C@@]5(C)C[C@@H](O)[C@H](O)[C@](C)(CO)C5CC[C@]43C)[C@@H]2[C@@H]1O (some centres undefined)	7%[10 µM]
CCOc1ccc(C(=O)Oc2c(Sc3ccccc3)c(C)nn2C(C)(C)C)cc1OCC	-17%
CCC(CC)CN1CC2(CCN(C(=O)CCc3nncn3C)CC2)OC1=O	2%
COc1ccc(OC)c(C2=Nn3c(nnc3-c3ccccc3C)SC2)c1	i
O=C(NO)c1cnc(N2CCN(S(=O)(=O)c3ccc4ccccc4c3)CC2)nc1	23%[10 µM]
NC(=O)C1CCN(c2nc(-c3ccc(C(F)(F)F)cc3)cs2)CC1	i
C=CCNC(=O)N[C@H]1CCN(C(=O)CC(C)(C)C)[C@@H]1C(=O)N[C@@H](Cc1cccs1)C(N)=O	3%
Cn1nnnc1SCCNCc1ccc(OCc2ccccc2Cl)cc1	-11%
O=C(NC1CCCCC1)c1ccc2nnc(Cc3ccc(Cl)cc3)n2c1	i
[2H]N[C@@H](Cc1ccccc1)C(=O)N1CCC[C@H]1C(=O)N[C@@H](CCCNC(=N)N)C(=O)N1CCC[C@H]1C(=O)NCC(=O)NCC(=O)NCC(=O)NCC(=O)N[C@@H](CC(N)=O)C(=O)NCC(=O)N[C@@H](CC(=O)O)C(=O)N[C@@H](Cc1ccccc1)C(=O)N[C@@H](CCC(=O)O)C(=O)N[C@@H](CCC(=O)O)C(=O)N[C@H](C(=O)N1CCC[C@H]1C(=O)N[C@@H](CCC(=O)O)C(=O)N[C@@H](CCC(=O)O)C(=O)N[C@@H](Cc1ccc(O)cc1)C(=O)N[C@@H](CC(C)C)C(=O)O)[C@@H](C)CC	-26%[5.1 µM]
O=C(NC1CCCCCC1)C1CCc2nnc(-c3ccccn3)n21 (centres undefined)	-18%[39.2 µM]
Cc1cc(C)c2c(CC(=O)Nc3cc(C(F)(F)F)ccc3Cl)coc2c1	-19%
Cc1c(C(=O)OCC2CC2)[nH]c2c1C(=O)CC(c1ccco1)C2 (centres undefined)	?
Cc1ccc2c(c1)c(=O)c(S(=O)(=O)c1ccc(C)c(C)c1)cn2CC(=O)Nc1ccccc1	-23%
O=C(O)c1ccnc(-c2ccnc(NCC(O)c3ccccc3Cl)n2)c1 (centres undefined)	i
CCCc1nn2c(=O)cc(COC(=O)c3cccc(NC(=O)c4cccs4)c3)nc2s1	1%
OC[C@H]1O[C@@H](OCc2ccccc2)[C@H](O)[C@@H](O)[C@@H]1O	18%
NS(=O)(=O)c1ccc(CCNC(=O)CCCCCn2c(=O)[nH]c3ccccc3c2=O)cc1	?
COC([CH2][Hg])CNC(=O)c1ccccc1OCC(=O)O (centres undefined)	1.5µM*
O=C(Cc1ccccc1Cl)NC1CCN(c2cc(-c3cccs3)[nH]n2)C1 (centres undefined)	2%
CN1CCN(c2ccc(Nc3ncc4cc5n(c4n3)C3(CCCCC3)CNC5=O)nc2)CC1	6%[5.1 µM]
CCOC(=O)c1oc2c(c1C)-c1nn(Cc3c(F)cccc3Cl)cc1CC2	-28%
COc1ccc(C2=Nn3c(nnc3-c3ccccc3O)SC2)cc1	3%
O=C(Cc1nnc(-c2ccncc2)s1)Nc1ccc(F)c(C(F)(F)F)c1	i
CCc1nn2c(=O)cc(N3CCN(C)CC3)nc2s1	i
O=c1[nH]cnc2c([C@@H]3N[C@H](CO)[C@@H](O)[C@H]3O)c[nH]c12	4%
CCN(CC)CCNC(=O)c1cn(CC)c2ccc(S(=O)(=O)N3CCc4ccccc4C3)cc2c1=O	17%
O=S(=O)(c1cccc(O)c1)N1CCN(S(=O)(=O)c2c(F)cccc2F)CC1	-7%
O=C(Nc1cccnc1Cl)c1cc(-c2ccc(Cl)cc2)on1	-25%
O=C(CSc1nc2cc3ccccc3cc2[nH]1)Nc1ccc(F)cc1	-23%
C=CCN1CCN(C(=O)c2ccc3c(c2)C(O)CCCCCN3CCOC)CC1 (centres undefined)	-10%
O=C(c1c2ccccc2cc2ccccc12)N1CCC(N2CCC[C@@H](C(=O)N3CCOCC3)C2)CC1	?
COC(=O)c1nc(Nc2cc(F)cc(F)c2)nc(NC2CCCC2)n1	i
COc1ccc([C@@H]2CN(C(=O)CCc3ccsc3)C[C@H]2N(C)C)cc1	i
CCCC[C@@H](C=O)NC(=O)[C@H](CC(C)C)NC(=O)OCc1ccccc1	-22%&-8%
N=C(N)c1ccc(/C=C/c2ccc(C(=N)N)cc2O)cc1	28%
Cn1c2ccccc2c2c3c(c4c5ccccc5n(CCC#N)c4c21)CNC3=O	-28%
O[C@@H]1CO[C@H]2[C@@H]1OC[C@@H]2O	-5%
Cc1cnc(-c2ccccc2C(C)C)nc1NCc1ccc(C2CCCNC2)cc1 (centres undefined)	4%
CON(C)C(=O)[C@H](O)[C@H](Cc1ccccc1)NC(=O)c1cc2cc(Cl)ccc2[nH]1	-13%
O=C1CN=C(c2cccc(Br)c2)c2oc3ccccc3c2N1	-11%
Cc1ccc(Cl)cc1N1CCN(C(=O)COCc2cc(-c3ccc4c(c3)OCO4)on2)CC1	-17%
COC(=O)Nc1cc(-c2ccncc2)nn1C	4%[39.2 µM]
C[C@@H](O)[C@H]1C(=O)N2C(C(=O)OCOC(=O)C(C)(C)C)=C(SC3CN(C4=NCCS4)C3)[C@H](C)[C@H]12	2%
CS(=O)(=O)c1ccc(Oc2cc(F)cc(C#N)c2)c2c1[C@H](O)[C@H](F)[C@@H]2F	-7%
C=CCOc1cccc(-c2nnc(CCC(=O)NCc3ccccc3)c(=O)[nH]2)c1	3%
CC(NCc1cn(CCC(N)=O)c2ccccc12)c1ccccc1-n1cccn1 (centres undefined)	-18%
O=C(Nc1cc(F)ccc1F)C1CCN(c2nc3ccccc3n3cccc23)CC1	?
CCn1ccc(C(=O)N2CCC3(CC2)CC(N(C(=O)c2ccccc2)C2CC2)CCO3)n1 (centres undefined)	1%
Cc1oc(-c2ccccc2Cl)nc1CSc1nc2ncccc2[nH]1	-20%
CC(C)c1ccc(Cn2ccc3c4c(N)nc(NC5CC5)nc4ccc32)cc1	-16%
CNCCCC1c2ccccc2C=Cc2ccccc21	11%

Next part.
SMILES	nsP2pro inh
CCOc1ccc(NC(=O)c2ccc(F)c(S(=O)(=O)NCc3ccc4c(c3)OCO4)c2)cc1	-20%
CC(=O)N1CCN(c2ccc(NCc3ccccc3)cc2)CC1	i
Cc1cc2c(cc1S(=O)(=O)N(C)CC(=O)Nc1cccc(C#N)c1)OCC(=O)N2	-22%
COc1coc(C(=O)NCCC2CN(c3cnn(C)c(=O)c3)CCO2)cc1=O (centres undefined)	3%
Cc1ccc(S(=O)(=O)Nc2cnccc2C(=O)Nc2nc(-c3cccc(C)c3)cs2)cc1	3%
Cn1ccc2cc(-c3ccc4ncnc(NCc5cccs5)c4c3)ccc21	-1%
CCOc1ccc(CCNC(=O)c2cn(C)c3ccc(S(=O)(=O)N4CCCCC4)cc3c2=O)cc1OCC	6%
O=C(CSc1ncc(CO)n1Cc1ccc(Cl)cc1)NCc1ccc(F)cc1	-6%
CN(C)C(=O)CO[C@H]1COCCN(Cc2ccccn2)C1	i
Cc1cc(CN2CCC3(CC2)CN(C2CCC2)CC3CO)n(C)n1 (centres undefined)	0%
COc1cc(OC)cc(OC)c1	-6%
O=C(NCCSc1c(-c2ccc(F)cc2)[nH]c2ccccc12)c1ccc(S(=O)(=O)N2CCOCC2)cc1	-30%
CS(=O)(=O)N1C[C@@H](COc2ccccc2)[C@H](C(N)=O)C1	?
O=C(Nc1ccc2nc(SCCOc3ccccc3)sc2c1)c1ccc2c(c1)OCO2	-14%
COc1ccc(C2=NS(=O)(=O)N(C)C(C(=O)NC(C)c3ccccc3)=C2)cc1 (centres undefined)	-13%
Cc1nn(CCCC(=O)Nc2cc(C(F)(F)F)ccc2Cl)c(=O)c2c1sc1ccccc12	-20%
Cc1cc(OCCn2c(CCNC(=O)C3CCCCC3)nc3ccccc32)ccc1Cl	-21%
O=C(Cc1cccn1-c1ccc(F)cc1)N1CCCCC1	-20%
O=C(c1ccoc1)N1CCC(Cc2nc(C3CC3)n[nH]2)C1 (centres undefined)	i
O=C(OCC#CCSc1nnc(-c2cccc3ccccc23)o1)c1cccc2[nH]ccc12	-2%
CCC1CN(C(=O)N2CCC(C(=O)NCCc3ccc(Cl)cc3)CC2)c2ccccc2O1 (centres undefined)	0%
O=c1n(CCN2CCCC(N[S+](=O)([O-])c3ccccc3)C2)nc2n1CCCC2 (centres undefined)	-9%
CCCCN(CCN(CCCC)C(=O)N1CCOCC1)C(=O)N1CCOCC1	-2%
CC1(C)CC23[C@@H]4CC(=O)[C@@H]2COC(=O)[C@@H]3CC[C@H]41	-12%
NC(=O)C1CCN(c2nnc(-c3ccc(Br)cc3)s2)CC1	-5%
Cc1ccccc1OCC(=O)Nc1ccc2[nH]c(=O)sc2c1	-21%
Cc1ccc(NC(=O)c2c(NC(=O)Cc3ccccc3)sc3c2CCC3)cc1	-2%
Cc1ccc(F)c(C(=O)N[C@H]2CCOC[C@H]2C2CCOCC2)c1Cl	2%
CCCCCCCCCCCCC/C=C/[C@@H](O)[C@H](CO)N(C)C	168%[activator]
C/C=C/C1=CC2=CC(=O)C(C)(O)C(OC(=O)c3c(C)cc(O)cc3O)C2CO1 (centres undefined)	18%
COc1ccc(NC(=O)CSc2oc(-c3ccc(F)cc3)nc2S(=O)(=O)c2ccc(C)cc2)c(OC)c1	?
O=C(CNC(=O)c1ccc([N+](=O)[O-])cc1)OC(C(=O)Nc1cc(C(F)(F)F)ccc1Cl)c1ccccc1 (centres undefined)	i
Cc1cccc(S(=O)(=O)N2CCCC(Cn3cc(CO)nn3)C2)c1 (centres undefined)	-5%
N#Cc1c(-c2ccc(-c3ccccc3)cc2)no[n+]1[O-]	-1%
COCCCNC(=O)N1CCCC(c2[nH]ccc2C(N)=O)C1 (centres undefined)	-28%
COc1ccccc1NC(=O)c1cc(S(=O)(=O)NCCC2=CCCCC2)ccc1F	-15%
CNC(=O)Oc1cccc2ccccc12	?
O=c1cc(-c2ccc(O)cc2)oc2cc(O)cc(O)c12	7%
Cc1ccccc1NC(=O)c1sc2nc(-c3ccncc3)ccc2c1N	31%[activator]
Cc1ccc2c(=O)c3cccc(CC(=O)O)c3oc2c1C	17%
Cc1cccc(C(=O)N2CCc3cc(CNS(=O)(=O)c4cccs4)ccc32)c1	-18%
Cc1cccc(-c2ccc3ncnc(N(C)Cc4ccco4)c3c2)c1	-5%
CS(=O)(=O)c1ccc(C(=O)OCC(=O)N2CCN(CCC3CCCCC3)CC2)cc1[N+](=O)[O-]	-2%
CCc1ccc(S(=O)(=O)c2nnn3c2nc(N(C)Cc2ccccc2)c2cc(Cl)ccc23)cc1	-16%
CC(=O)c1ccc(NC(=O)CN(C)S(=O)(=O)c2cnc[nH]2)cc1	-9%

In the list so far, these have a nitro group on carbon.
SMILES	nsP2pro inh
O=C(CNC(=O)c1ccc([N+](=O)[O-])cc1)OC(C(=O)Nc1cc(C(F)(F)F)ccc1Cl)c1ccccc1 (centres undefined)	i
CS(=O)(=O)c1ccc(C(=O)OCC(=O)N2CCN(CCC3CCCCC3)CC2)cc1[N+](=O)[O-]	-2%

The main list resumes with the four entries that preceded the break.
SMILES	nsP2pro inh
Cc1cccc(-c2ccc3ncnc(N(C)Cc4ccco4)c3c2)c1	-5%
CS(=O)(=O)c1ccc(C(=O)OCC(=O)N2CCN(CCC3CCCCC3)CC2)cc1[N+](=O)[O-]	-2%
CCc1ccc(S(=O)(=O)c2nnn3c2nc(N(C)Cc2ccccc2)c2cc(Cl)ccc23)cc1	-16%
CC(=O)c1ccc(NC(=O)CN(C)S(=O)(=O)c2cnc[nH]2)cc1	-9%
Cc1ccc(OCC(=O)N(Cc2sccc2C)C2CCS(=O)(=O)C2)cc1 (centres undefined)	-17%
COc1ccc(C2Nc3ccccc3C(=O)N2Cc2ccccc2)cc1COc1ccc(F)cc1 (centres undefined)	-4%
O=C(NCCCCN1CCN(c2cccc(Cl)c2Cl)CC1)c1cc2ccccc2s1	-21%
O=C(Nc1ccccc1)Nc1ccccc1	-5%

Compound activity: PubChem, National Center for Advancing Translational Sciences (NCATS)
